# NPYLR7 agonist: mosquito NPYLR7 agonism; 270,000 compounds, 0.15% hits; activation, % at 10 µM; HEK293T NPYLR7/Galpha15, GCaMP6s calcium fluorescence; in the data active = activation above about 40%;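 also: 0% = vehicle and 100% = reference agonist at the receptor; some compounds past the cut are filed as inactive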
# NPYLR7 agonist max-min: recorded beside NPYLR7 agonist, whose call it bears; activation, %; measured here: Max-Min RFU normalised activation; some inactives read as strong as hits;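 span of the calcium signal over five minutes; 0% = vehicle and 100% = native peptide agonist; compound fluorescence can raise it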
# * marks the source's active call; other numbers are inactive results; & = joins results of further samples. The list is partial; the hit share may differ from the screen's.
1	Cc1nn(C)c(C)c1C(C)NC(=O)c1cc(COc2ccc(F)c(F)c2)on1 (configuration not stated)
2	Cc1ccc(-n2ncc3c(C(C)C)nn(CC(=O)NC(C)(C)C)c(=O)c32)cc1C
3	Cc1c(C(=O)N(C)Cc2ccc(F)cc2)sc(=O)n1CC(=O)c1ccc(N2CCCC2)cc1
4	O=S(=O)(c1ccc(I)cc1)N1CCSC1c1ccco1 (configuration not stated)
5	Cc1cc(C=C(C#N)C(=O)OCC(=O)NC2CCCCCCC2)c(C)n1CCC(C)C
6	CCNC(=O)[C@H]1CC[C@@](C)(C(=O)NCCc2nc3c(C)cccc3[nH]2)C1(C)C
7	CCOC(=O)C(C)Sc1ccc2nnc(CCNS(=O)(=O)c3ccc(C)cc3)n2n1 (configuration not stated)
8	O=C(CNCc1c(Cl)nc2ccccn12)N1CCCCC1
Screen / compound no.	1	2	3	4	5	6	7	8
NPYLR7 agonist	3.4	-1.3	12.4	7.8	3.7	3.0	-10.9	2.0
NPYLR7 agonist max-min	4.3	-0.5	8.0	2.7	0.1	15.9	-16.6	-1.8

9	Cc1noc(-c2ccc(OC(F)(F)F)cc2)c1C(=O)N(C)CCc1ccccn1
10	CC(=O)Nc1ccc(Cl)c(C(=O)N(C)C2Cc3ccccc3C2)c1
11	CCCN1CC(NC(=O)CCc2ccccc2C)CC1=O (configuration not stated)
12	CC(=NNc1nc(C)nc2sc3c(c12)CCC3)c1ccncc1
13	CC(=O)c1ccc(N=Cc2nc(-c3ccccc3F)oc2O)cc1
14	COc1ccccc1OCC(=O)NN1S(=O)(=O)c2ccccc2S1(=O)=O
15	CN(C)CCNC(=O)c1nnc(N2CCN(c3ccccc3F)CC2)c2ccccc12
16	O=C(CCC(F)(F)F)N1CCC(CO)(CCc2ccccc2)CC1
Screen / compound no.	9	10	11	12	13	14	15	16
NPYLR7 agonist	8.4	25.8	-17.3	-5.8	10.1	2.5	5.0	4.6
NPYLR7 agonist max-min	16.1	15.8	-15.6	-9.0	9.4	1.2	2.6	9.7

17	CCC(=O)N1N=C(c2cccs2)CC1c1ccco1 (configuration not stated)
18	COC(=O)C1=C(C)NC(=O)NC1c1ccc(F)cc1 (configuration not stated)
19	CC1CN(C(=O)c2cc3ccsc3n2Cc2cccc(F)c2)CCN1C(=O)Nc1ccc(C(F)(F)F)cc1 (configuration not stated)
20	Cc1cc(NC(=O)CN2CC(C)CC(C)C2)nc2c1c(=O)oc1ccccc12 (configuration not stated)
21	c1ccc2oc(N3CCN(Cc4nc(-c5ccc6c(c5)OCO6)no4)CC3)nc2c1
22	NC(=O)c1ccccc1NC(=O)C1CCN(c2ccc(-c3ccc(F)cc3)nn2)CC1
23	CCOC(=O)c1cc(-c2cccc(NC(=O)C3CCN(C(C)=O)CC3)c2)n(-c2cccc(C)c2)n1
24	CCN(CC)c1ccc(CNc2nnnn2C)cc1
Screen / compound no.	17	18	19	20	21	22	23	24
NPYLR7 agonist	1.4	0.2	-2.0	-3.6	6.3	-7.3	-2.2	14.4
NPYLR7 agonist max-min	7.8	-3.5	1.3	-3.8	-6.7	-10.3	-3.0	12.3

25	COc1ccc(Br)c(Cn2c(C)c(C(=O)NCc3ccc(C#N)cc3)sc2=O)c1
26	CCOc1ccc(NC(=O)c2cccc3c2OC(C)C3C)cc1S(=O)(=O)N1CCOCC1 (configuration not stated)
27	Cc1[nH]c2ccccc2c1C(=O)Cn1c(=O)oc2ccccc21
28	Cc1ccc(-n2c(SCc3ccccc3)nnc2C(Cc2ccccc2)NC(=O)C(C)(C)CCl)cc1 (configuration not stated)
29	CC(=O)Nc1ccc(NC(=O)CSc2nc(-c3ccccc3)nc3c2c(=O)n(C)c(=O)n3C)cc1
30	COc1ccc(N2CCN(C(=O)C3CC=CCC3C(=O)Nc3cc(OC)ccc3OC)CC2)cc1 (configuration not stated)
31	CCCCn1nc(C)c(C(=O)N2CCNC(=O)CC2)c1Cl
32	COc1cc(S(=O)(=O)NC(C)c2ccccn2)ccc1NC(C)=O (configuration not stated)
Screen / compound no.	25	26	27	28	29	30	31	32
NPYLR7 agonist	8.6	7.3	-3.2	-3.2	-5.3	-7.7	1.3	-5.3
NPYLR7 agonist max-min	5.6	2.9	-9.8	-1.4	-8.1	-14.5	0.4	-6.1

33	CSc1ncc(CN2CCN(Cc3ccccc3C)C(CCO)C2)cn1 (configuration not stated)
34	CCC(C(=O)NC1CCN(c2ccccc2C(=O)NCCN(C)C)CC1)c1ccccc1 (configuration not stated)
35	Cc1cc(C(=O)Nc2ccc(Cl)c(S(=O)(=O)N3CCCC3)c2)no1
36	CO/N=C(/C(=O)N[C@@H]1C(=O)N2C(C(=O)O)=C(COC(N)=O)CS[C@H]12)c1ccco1
37	COc1ccc2nc(-c3ccccc3)nc(NCCN3CCCC3)c2c1
38	O=C(Nc1ccc(Cl)cn1)c1ccc(COCC(F)(F)C(F)F)o1
39	COCc1c(Br)c(C)nc(OCC(=O)N/N=C\c2ccc(F)cc2)c1C#N
40	CCCNC(=O)COc1coc(CN2CCN(c3ccc(F)cc3)CC2)cc1=O
Screen / compound no.	33	34	35	36	37	38	39	40
NPYLR7 agonist	10.7	24.8	-7.3	9.9	-1.8	-17.2	-8.3	3.1
NPYLR7 agonist max-min	2.5	16.3	12.4	6.5	-6.6	-22.9	-17.1	4.5

# Gathered by group, the entries above containing bromine
25	COc1ccc(Br)c(Cn2c(C)c(C(=O)NCc3ccc(C#N)cc3)sc2=O)c1
39	COCc1c(Br)c(C)nc(OCC(=O)N/N=C\c2ccc(F)cc2)c1C#N
Screen / compound no.	25	39
NPYLR7 agonist	8.6	-8.3
NPYLR7 agonist max-min	5.6	-17.1

# (listing goes on)
41	CCOCCC(=O)NCC(C)c1ccc(C)cc1 (configuration not stated)
42	Cc1cccc(Cn2c(=O)c(C(=O)N3CCN(C)CC3)nn(-c3ccc(C)c(Cl)c3)c2=O)c1
43	Cc1ccc(C(=O)Nc2ccc(NC(=O)C3CCNC3)cc2)o1 (configuration not stated)
44	CC(C)(C)C(=O)Nc1nnc(SCc2cccc(Cl)c2)s1
45	Cc1c(Cc2ccc3c(c2)OCO3)sc(NC(=O)c2cc(=O)c3ccccc3o2)c1C#N
46	CN(Cc1ccccc1)C1=CC2=CC(=C(C#N)C#N)CCC2CC1 (configuration not stated)
47	COc1cccc(C2CC(c3ccccc3NS(C)(=O)=O)=NN2C(=O)c2ccco2)c1O (configuration not stated)
48	CCn1c(SC(C(N)=O)c2ccccc2)nnc1-c1ccco1 (configuration not stated)
Screen / compound no.	41	42	43	44	45	46	47	48
NPYLR7 agonist	-2.5	16.1	-2.9	-4.5	2.7	117.8*	-0.3	-5.3
NPYLR7 agonist max-min	-7.6	17.0	6.4	8.4	1.9	136.3*	-5.2	1.5

49	N#CCSc1nnc2c(n1)[nH]c1ccccc12
50	O=C(c1scc2c1CCCC2)N1CCCC(CNS(=O)(=O)c2cccs2)C1 (configuration not stated)
51	O=C1OC(c2ccco2)=N/C1=C\C(Cl)=C\c1ccccc1
52	Cc1nc(C)c(CC(=O)N2CCn3cncc3C2)c(=O)[nH]1
53	CCOc1cc(C2C(C(=O)OC)=C(C)N(C)C(C)=C2C(=O)OC)ccc1OC(C)=O
54	O=C(OCc1cc(Cl)ccn1)c1ccc2nc(C(F)F)[nH]c2c1
55	OC(c1cccc(F)c1)c1ncc(-c2ccc(Oc3ccccc3)cc2)[nH]1 (configuration not stated)
56	Nc1cc(N)c2c(c1)Oc1ccccc1CC2
Screen / compound no.	49	50	51	52	53	54	55	56
NPYLR7 agonist	18.5	-6.9&-11.7	-1.4	18.6	-5.3	0.0	-0.1	0.9
NPYLR7 agonist max-min	15.6	-11.1&-18.4	-5.0	14.3	-9.5	-0.1	-1.6	-1.3

57	N#Cc1ccc(CNC(=O)[C@@H]2Cc3nc[nH]c3CN2Cc2ccc(C(=O)O)cc2)cc1
58	O=C(NCc1cccs1)c1csc(Nc2ccc(OC(F)F)cc2)n1
59	CC(=O)Nc1ccc(NC(=O)CSc2cn(CC(=O)N(C(C)C)C(C)C)c3ccccc23)cc1
60	CCOc1ccccc1C(=O)N1C[C@@H](CO)[C@@H]2Oc3c(C)cccc3[C@@H]21
61	Cc1ccccc1C(NC(=O)c1cnn(C)c1)c1ccncc1 (configuration not stated)
62	O=C(c1cccnc1Cl)N1CCN(c2nccc(-c3ccco3)n2)CC1
63	CS(=O)(=O)N1N=C(c2cccc(O)c2)CC1c1ccco1 (configuration not stated)
64	O=C(NC1CCN(c2ccccc2C(=O)NCCc2ccccc2)CC1)c1ccccc1F
Screen / compound no.	57	58	59	60	61	62	63	64
NPYLR7 agonist	-8.7	7.3	-3.4	-3.5	-21.0	3.5	10.2	-2.8
NPYLR7 agonist max-min	-15.0	0.8	-7.8	6.2	-21.4	8.0	10.5	4.5

65	Cc1cnc(N2C[C@H](OC(C)C)[C@@H](O)C2)nc1N(C)C
66	CC(c1nnc(SCC(=O)O)n1-c1ccccc1)n1ccnc1 (configuration not stated)
67	CCCN1CCC(NC2CC(C)(C)Cc3c2cnn3-c2ccc(F)cc2)CC1 (configuration not stated)
68	CCCCn1nnnc1NCc1cccn1C
69	O=C(CCc1c[nH]c2ccccc12)N1CCC(CO)(Cc2cccc(C(F)(F)F)c2)CC1
70	O=c1ccn(Cc2nnc(SCc3ccc(Cl)cc3)o2)c(=O)[nH]1
71	Cc1cccc2c1C(=O)NC(c1c(C(C)C)nn(C)c1Cl)N2 (configuration not stated)
72	Cc1cc(N2CCN(S(=O)(=O)c3cccc(C(F)(F)F)c3)CC2)nc(-c2cccc(C(F)(F)F)c2)n1
Screen / compound no.	65	66	67	68	69	70	71	72
NPYLR7 agonist	9.3	3.5&16.3	21.9	8.5	13.9	-3.2	2.6	-3.6
NPYLR7 agonist max-min	3.7	1.4&1.6	4.1	-1.1	13.9	3.8	2.0	1.3

# A draw from above in order of formula weight, smallest number first.
66	CC(c1nnc(SCC(=O)O)n1-c1ccccc1)n1ccnc1 (configuration not stated)
4	O=S(=O)(c1ccc(I)cc1)N1CCSC1c1ccco1 (configuration not stated)
26	CCOc1ccc(NC(=O)c2cccc3c2OC(C)C3C)cc1S(=O)(=O)N1CCOCC1 (configuration not stated)
Screen / compound no.	66	4	26
NPYLR7 agonist	3.5&16.3	7.8	7.3
NPYLR7 agonist max-min	1.4&1.6	2.7	2.9

# Further structures follow:
73	CC(=O)Nc1cccc(CN2CCC(Oc3ccccn3)C2)c1 (configuration not stated)
74	COc1cc2c(cc1OC)CN(Cn1nc(C(F)(F)F)n(C)c1=S)CC2
75	O=c1[nH]c(SCc2ccc(Cl)c(Cl)c2)nc2c1cnn2CCO
76	O=C(c1cncc(N2CC[C@@H](c3ccc4c(c3)OCO4)[C@H](O)C2)n1)N1CCCC1
77	O=C(NCc1cccs1)c1cccnc1N1CCN(C(=O)c2cccc(Cl)c2)CC1
78	Cc1ccc(Cc2nc(N3CCN(C(=O)CSc4ccccc4)CC3)c3c(C)nn(-c4ccc(F)cc4)c3n2)cc1
79	CCCCc1noc(C(C)Nc2cccc(N3CCCCC3=O)c2)n1 (configuration not stated)
80	Cc1nnc(CN(C)C(=O)CC2COc3ccc(C(=O)N(C)C)cc3N2C)o1 (configuration not stated)
Screen / compound no.	73	74	75	76	77	78	79	80
NPYLR7 agonist	12.1	8.6	-1.8	8.6	-6.8	-0.4	4.4	5.9
NPYLR7 agonist max-min	6.5	7.7	-0.4	9.1	-2.3	-0.8	1.5	4.5

# Fetched one by one from above:
68	CCCCn1nnnc1NCc1cccn1C
30	COc1ccc(N2CCN(C(=O)C3CC=CCC3C(=O)Nc3cc(OC)ccc3OC)CC2)cc1 (configuration not stated)
67	CCCN1CCC(NC2CC(C)(C)Cc3c2cnn3-c2ccc(F)cc2)CC1 (configuration not stated)
40	CCCNC(=O)COc1coc(CN2CCN(c3ccc(F)cc3)CC2)cc1=O
38	O=C(Nc1ccc(Cl)cn1)c1ccc(COCC(F)(F)C(F)F)o1
48	CCn1c(SC(C(N)=O)c2ccccc2)nnc1-c1ccco1 (configuration not stated)
Screen / compound no.	68	30	67	40	38	48
NPYLR7 agonist	8.5	-7.7	21.9	3.1	-17.2	-5.3
NPYLR7 agonist max-min	-1.1	-14.5	4.1	4.5	-22.9	1.5

# Remaining list, next part
81	CN(Cc1cnc(-c2ccco2)nc1)Cc1cnn(-c2ccc(F)cc2)c1
82	CC(C)NS(=O)(=O)c1ccc2c(c1)oc(=O)n2C
83	Cc1ccccc1CNC(=O)C1CCN(c2ncccc2S(=O)(=O)N2CCCCC2)CC1
84	Cc1cccc(-n2ncc(C(=O)NCc3ccncc3)c2C(F)(F)F)c1
85	C=CCc1cccc(C)c1OCCCCNCCOC
86	CSc1nc(C)c(CC(=O)NCc2ccc(N(C)C)cc2)s1
87	COC(C)c1noc(CCC(=O)NCc2ccc3c(c2)OCCO3)n1 (configuration not stated)
88	O=C(O)COc1ccc(N=Cc2nc(-c3ccc(Cl)cc3)oc2O)cc1
89	Cc1cnc(NCC(c2ccccn2)N(C)C)nc1N(C)C (configuration not stated)
90	O=S(=O)(NCCc1csc2nc(-c3ccc(F)cc3)nn12)c1ccc(Oc2ccccc2)cc1
91	Cc1cccc(CSCC(=O)NC(C)C2CN(C)CCO2)c1 (configuration not stated)
Screen / compound no.	81	82	83	84	85	86	87	88	89	90	91
NPYLR7 agonist	10.0	3.9	2.1	22.7	-12.9	-1.3	0.8	7.2	1.6	-7.8	-2.7
NPYLR7 agonist max-min	8.0	1.7	-1.6	29.0	-19.3	-5.1	18.9	7.9	11.6	-7.9	695.2

# Compound activity: PubChem, Fisher Drug Discovery Resource Center
